AID504770 = E. coli YBA685 growth inhibition, screen for V. cholerae RctB inhibitors; E. coli YBA685 rctB-dependent plasmid, OD600 growth, 3 h; hits give low values; z-score (concentration not given with the values); 130,000 compounds, 0.27% hits; AID 504770;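 active = z-score under -2 on both plates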;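 also: wells of about 30 µL received 100 nL stock; score is relative to mean and SD of the test wells; the first replicate is given; strong numbers were not always called active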
Ba CapD inh = blocks the Bacillus anthracis CapD enzyme; z-score (no concentration beside the values); AID 492967; 140,000 compounds, 0.23% hits; purified CapD enzyme, fluorescence intensity read-out; hits give low values; some hits fall short of the stated cut;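 active = z-score under -4 in either of two replicates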;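 also: stock transfer was 100 nL into about 40 µL; score is relative to mean and spread of the plate; one replicate is shown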
* marks the source's active call; other numbers are inactive results; & = joins results of further samples.

Cc1nc(SCC(=O)Nc2ccc(Br)cc2)c(C#N)c2c1CCCC2 was read as Ba CapD inh 0.36.
For N#Cc1c(-c2ccc(Cl)cc2Cl)cc(-c2ccc(Cl)cc2)[nH]c1=O the results were Ba CapD inh 2.4.
N#CCCn1cc(C(=O)Nc2ccc(C(=O)O)cc2)c(-c2cccc(Br)c2)n1 was read as AID504770 -0.3 and Ba CapD inh 0.82.
Screening Cc1cc(NC(=O)CCC(=O)N(Cc2ccccc2)C2(C(=O)NC3CCCCC3)CCCC2)no1 returned AID504770 -0.3.
`C=C(C)C(=O)Oc1cccc(N2C(=O)CCC2=O)c1` gave AID504770 -0.45 and Ba CapD inh 0.095.
`CCCCNC(=O)c1ccc2c(c1)ncn2C1CCCC1` gave AID504770 0 and Ba CapD inh 0.12.
Screening COc1ccc(CCNc2nc(C)cc(C)n2)cc1OC returned AID504770 0.55.
For Cc1ccc(S(=O)(=O)Nc2ccc3c(c2)nc2n3CCN(Cc3ccccc3)C2)cc1 the results were AID504770 0.55 and Ba CapD inh 0.23.
N#Cc1c(NC(=O)CN2C(=O)c3ccccc3C2=O)oc(-c2ccccc2)c1-c1ccccc1 was read as Ba CapD inh -0.06.
Screening COC(=O)c1ccc(C2Nc3ccccc3-c3nnc(SC)nc3O2)cc1 (configuration not stated) returned Ba CapD inh 0.095.
Screening Cc1[nH]c2ccccc2c1Cc1nnc(SCc2ccccc2)o1 returned AID504770 0.35 and Ba CapD inh -0.1.
For COc1cc2c(cc1OC)CN(C(=O)c1ccc3c(c1)CCC3)CC2 the results were AID504770 0.1.
N#CC1(C#N)[C@@H]2c3ccccc3C=CN2[C@@H](C(=O)C23CC4CC(CC(C4)C2)C3)[C@@H]1c1ccccc1Br was read as Ba CapD inh -0.32.
O=C(Nc1ccccc1C(=O)NC1CCCCNC1=O)c1ccc(Cl)cc1 (configuration not stated) was read as Ba CapD inh -0.26.
Cn1ccnc1SCC(=O)NC1CCCCC1 was read as AID504770 -0.75 and Ba CapD inh -0.14.
Screening Cc1ccc(S(=O)(=O)N2CCCC2C(=O)Nn2cnnc2)cc1 (configuration not stated) returned AID504770 1.2 and Ba CapD inh -1.4.
Screening CC(C)OC(=O)/C=C/c1cn(-c2ccccc2)nc1-c1cccs1 returned AID504770 -0.05 and Ba CapD inh 3.4.
`Cc1cccc(O)c1O` gave AID504770 0.
O=C1/C(=C/c2ccncc2)COc2ccccc21 was read as AID504770 -0.35 and Ba CapD inh -0.57.
O=C(Cc1ccccc1)NCCCc1nc2ccccc2[nH]1 was read as AID504770 -0.75 and Ba CapD inh 0.075.
Screening Clc1ccc(-c2cnc(Oc3ccccc3)nc2)cc1 returned AID504770 2.2 and Ba CapD inh -0.1.
COC(=O)N1CCN(c2ccc(C)cc2)C(C)C1 (configuration not stated) was read as AID504770 -0.3 and Ba CapD inh -0.33.
O=C(O)Cn1c(CN2CCCCC2)nc2ccccc21 was read as AID504770 -0.85.
COCCOC(=O)C1=C(C)NC2(O)c3ccccc3C(=O)C12O (configuration not stated) was read as Ba CapD inh -0.1.
Screening O=C(Nc1cc(-c2cccc(F)c2)no1)c1ccc2c(Cl)c3c(nc2c1)CCCC3 returned AID504770 -1.8 and Ba CapD inh 0.43.
Screening O=C(Nc1nc(-c2ccccc2)cs1)NC1CCCCC1 returned Ba CapD inh -0.05.
`Cc1ccc(S(=O)(=O)c2nc(C)oc2N(C)C)cc1` gave AID504770 2.3 and Ba CapD inh -3*.
`O=C(CN1c2ccccc2S(=O)(=O)c2ccccc21)NC1CCCCCC1` gave AID504770 1.6 and Ba CapD inh -0.21.
CS(=O)(=O)c1ncc(Cl)c(C(=O)N2CCN(C(c3ccccc3)c3ccccc3)CC2)n1 was read as AID504770 -0.7 and Ba CapD inh 0.24.
Screening CCn1ccc(C(C)C)c1-c1ccccc1 returned AID504770 0.35 and Ba CapD inh 0.41.
Cn1/c(=N/N=C2\CCCCC2=O)sc2ccccc21 was read as AID504770 0.6.
CCCN(CCC)S(=O)(=O)c1cccc(S(C)(=O)=O)c1 was read as AID504770 -0.4 and Ba CapD inh 0.64.
Screening O=C(OCC(=O)N1CCc2ccccc21)c1sc2ccccc2c1Cl returned AID504770 -0.9 and Ba CapD inh -0.95.
Screening Cc1cccc(-n2nc3c(c2NC(=O)c2cc(Br)ccc2Cl)CS(=O)(=O)C3)c1C returned Ba CapD inh -0.4.
O=C(Nc1ccc(C(F)(F)F)cc1)O/N=C/c1ccccn1 was read as Ba CapD inh 0.65.
O=C(Nc1ccccc1)c1cc(Cl)cn(Cc2cccc(Cl)c2)c1=O was read as Ba CapD inh -0.12.
CNC(=O)N(O)C1N(C)C(=O)N(CCC2=CCCCC2)C1(C)C (configuration not stated) was read as Ba CapD inh 6.
For O=C(c1ccccc1NS(=O)(=O)c1cccc2nsnc12)N1CCOCC1 the results were AID504770 -0.45.
Screening NC(=O)C(c1ccc(Br)cc1)c1ccc(C(=O)c2ccccc2)cc1 (configuration not stated) returned Ba CapD inh -0.41.
For Cc1cc(C(=O)CSc2nnc(-c3c[nH]c4ccccc34)o2)c(C)n1C1CC1 the results were AID504770 0.35.
Screening O=C1c2ccc([N+](=O)[O-])cc2C(=O)N1C1C(=O)N(c2ccc(Cl)c(Cl)c2)C1c1ccc(F)cc1 (configuration not stated) returned Ba CapD inh -0.26.
`Cc1cc2c(cc1[N+](=O)[O-])-c1ncccc1C2=O` gave Ba CapD inh 6.
For CCC(=O)Nc1ccc(C(=O)n2nnc3ccccc32)cc1 the results were AID504770 -0.8 and Ba CapD inh 0.63.
For c1nncn1N=C1CCCCCC1 the results were AID504770 1.1 and Ba CapD inh 0.24.
For C=CCc1ccccc1OCC(O)CN1CCN(c2ccc(OC)cc2)CC1 (configuration not stated) the results were AID504770 -0.25 and Ba CapD inh 0.23.
O=C(N1CCc2ccc(S(=O)(=O)NCCO)cc2C1)C(F)(F)F was read as Ba CapD inh -0.2.
Cc1ccc2c(c1)sc(=NC(=O)/C=C/c1ccc(Br)o1)n2C was read as AID504770 0.35.
Screening CC1CCCC(=O)C1 (configuration not stated) returned AID504770 -0.3.
Screening O=CNc1ccccc1Oc1c(F)c(F)c(F)c(F)c1F returned AID504770 0.25 and Ba CapD inh 0.1.
CC(C)(CNC(=O)Cc1ccccc1F)N1CCOCC1 was read as AID504770 0.3.
For CC(NC(=O)C(NC(=O)OCc1ccccc1)C(C)C)C(=O)NC(CC(=O)O)C(=O)OC(F)F (configuration not stated) the results were Ba CapD inh 0.84.
Screening N#Cc1ccc(CSc2nc(-c3cccs3)c(-c3cccs3)[nH]2)cc1 returned AID504770 -0.15.
`O=C(Oc1cc2oc3ccccc3[nH]c2c2c(=O)c3ccccc3c(=O)c12)c1ccccc1` gave Ba CapD inh 0.54.
CCC1C(C#N)=C(N)Oc2c1c(=O)oc1ccccc21 (configuration not stated) was read as AID504770 -0.7 and Ba CapD inh -0.15.
CN1C/C(=C\c2cccs2)C(=O)/C(=C/c2cccs2)C1 was read as AID504770 -0.6&-0.1 and Ba CapD inh -2.1&-1.7.
For Nc1ccc(Cl)cc1C(=O)N1CCN(c2ccc([N+](=O)[O-])cn2)CC1 the results were Ba CapD inh 0.28.
O=C(NNC(=O)c1ccc(Br)o1)c1ccco1 was read as Ba CapD inh -0.3.
CCOC(=O)C1CCN(C(=O)c2cc(C)n(C(C)(C)C)n2)CC1 was read as AID504770 -0.2 and Ba CapD inh -1.4.
`CCCCCCCCCCCCCCCCCC(=O)NC1C(OC(C)=O)OC(COC(C)=O)C(OC(C)=O)C1OC(C)=O` (configuration not stated) gave Ba CapD inh -0.66.
Screening COc1ccc(CCNC(=O)CSc2nnc3c(n2)[nH]c2ccccc23)cc1OC returned Ba CapD inh -0.045.
Screening COc1ccccc1CNc1nc(-c2cccnc2)nn1C(=O)c1cccnc1 returned AID504770 -0.35.
COc1cc(/C=N/NC(=O)c2ccc(N(C)C)cc2)ccc1O was read as Ba CapD inh 15.
`COc1cc(/C=C2\N=C(c3cc(OC)c(OC)c(OC)c3)OC2=O)cc(OC)c1OC` gave Ba CapD inh -0.38.
CN(Cc1cccs1)S(=O)(=O)c1ccc(Cl)nc1 was read as AID504770 -0.35.
Screening CCOC(=O)c1sc(N)c(C(=O)OCC)c1C returned AID504770 0.5 and Ba CapD inh 0.17.
`Cc1cccc(C(=O)Nc2ccc(N(C)C)cc2)c1` gave AID504770 -0.35 and Ba CapD inh -0.85.
COc1cc(C(=O)NCc2nc3ccccc3n2C(C)C)cc(OC)c1OC was read as AID504770 -0.35 and Ba CapD inh 0.08.
Clc1ccc2c(N3CCNCC3)ccnc2c1 was read as AID504770 0.85.
For O=C(CSC1=NCCS1)c1ccc(Cl)s1 the results were AID504770 -0.45.
`CCOCCOC(=O)C1=C(C)NC2=C(C(=O)CC(c3cccs3)C2)C1c1cc(OC)c(OC)cc1OC` (configuration not stated) gave Ba CapD inh 0.93.
`O=C(C1CCN(c2ncc(C(F)(F)F)cc2Cl)CC1)N1CCCCC1` gave Ba CapD inh -0.29.
C=CCn1cnc2scc(-c3ccccc3)c2c1=O was read as AID504770 -0.85.

Seven entries already listed, sorted by number of heavy atoms, rising.
Screening CCOC(=O)c1sc(N)c(C(=O)OCC)c1C returned AID504770 0.5 and Ba CapD inh 0.17.
CN(Cc1cccs1)S(=O)(=O)c1ccc(Cl)nc1 was read as AID504770 -0.35.
C=CCn1cnc2scc(-c3ccccc3)c2c1=O was read as AID504770 -0.85.
`O=C(C1CCN(c2ncc(C(F)(F)F)cc2Cl)CC1)N1CCCCC1` gave Ba CapD inh -0.29.
Screening COc1ccccc1CNc1nc(-c2cccnc2)nn1C(=O)c1cccnc1 returned AID504770 -0.35.
`COc1cc(/C=C2\N=C(c3cc(OC)c(OC)c(OC)c3)OC2=O)cc(OC)c1OC` gave Ba CapD inh -0.38.
`CCOCCOC(=O)C1=C(C)NC2=C(C(=O)CC(c3cccs3)C2)C1c1cc(OC)c(OC)cc1OC` (configuration not stated) gave Ba CapD inh 0.93.

(cont.)
`CC(C)C(=O)NNc1cc(C(F)(F)F)ccn1` gave AID504770 -0.4 and Ba CapD inh 0.93.
CCS(=O)(=O)c1ccc2oc(SCc3ccc(F)cc3)nc2c1 was read as AID504770 0.15.
CN(C)c1ccc(/C=C2\Sc3ccc4ccccc4c3C2=O)cc1 was read as Ba CapD inh -0.24.
`Cc1ccc(Nc2scc(C)[n+]2C)c(C)c1` gave Ba CapD inh -0.33.
For Cc1ccc2cc(CCNC(=O)/C=C\c3ccc4c(c3)OCO4)c(=O)[nH]c2c1 the results were AID504770 -0.75 and Ba CapD inh 2.2.
For COc1cc(-c2nc(NC3CCCCC3)c3ccccc3n2)cc(OC)c1OC the results were Ba CapD inh 2.
Screening COc1cc(C2Nc3ccccc3C(=O)N2c2ccccc2)cc(OC)c1OC (configuration not stated) returned Ba CapD inh 12.
For O=S(=O)(Nc1ccc(SC(F)F)cc1)c1ccccc1C(F)(F)F the results were AID504770 -1.1.
For O=C(NNC(=O)c1cc(-c2ccccc2)nc2ccccc12)OCc1ccc(/C=C/c2ccccc2)cc1 the results were Ba CapD inh 5.7.
Screening Cc1nc2ccccc2n1CC(N)=O returned AID504770 0.55 and Ba CapD inh -0.67.
For CC(=O)NC(C(=O)O)C(C)(C)SN=O (configuration not stated) the results were AID504770 0.6.
For Cc1ccc(S(=O)(=O)NC2CC2)cc1C(N)=O the results were AID504770 -0.05 and Ba CapD inh -0.07.
C=CCc1c(C)nc2c(OC)cccc2c1Cl was read as AID504770 0.55 and Ba CapD inh 13.
CC(C)C(=O)Nc1nsc(-c2ccc(Cl)cc2)n1 was read as AID504770 -0.9 and Ba CapD inh 1.4.
For CCOC(=O)C1=C(c2ccccc2)N(C)C(=O)NC1c1ccc(OC(F)F)c(OC)c1 (configuration not stated) the results were Ba CapD inh 0.84.
`COc1ccc(S(=O)(=O)N2CCc3ccccc32)cc1C(=O)O` gave AID504770 1.2 and Ba CapD inh -0.07.
O=C(NCC(c1ccco1)N1CCCCC1)c1ccccc1C(F)(F)F (configuration not stated) was read as AID504770 -2.8.
Screening COc1ccc(/C=N/OCC(=O)Nc2ccc3c(c2)OCO3)c(OC)c1 returned AID504770 -0.7.
Screening O=C(OC(C(=O)NCc1ccc2c(c1)OCO2)c1ccncc1)c1ccc(Cl)nc1 (configuration not stated) returned AID504770 -0.65.
COc1ccc(-c2cc(C(=O)N(C)C)c3ccccc3n2)cc1 was read as AID504770 -0.5 and Ba CapD inh 79.
For O=S(=O)(c1cccc2nonc12)N1CCC2(CC1)OCCO2 the results were Ba CapD inh 0.09.
`O=C(CC1SC(=NCc2ccccc2)NC1=O)NCc1ccccc1` (configuration not stated) gave AID504770 -0.65.
CC1(C)CC(=O)CC(C)(C)N1OC(=O)c1ccccn1 was read as AID504770 -0.95 and Ba CapD inh 0.68.
Screening O=C(/C=C/Sc1nc2cc(Cl)c(F)cc2[nH]1)c1ccccc1 returned AID504770 0.6 and Ba CapD inh -0.57.

3 entries picked at random from the list so far:
O=C(N1CCc2ccc(S(=O)(=O)NCCO)cc2C1)C(F)(F)F was read as Ba CapD inh -0.2.
Screening N#Cc1ccc(CSc2nc(-c3cccs3)c(-c3cccs3)[nH]2)cc1 returned AID504770 -0.15.
`O=C(Oc1cc2oc3ccccc3[nH]c2c2c(=O)c3ccccc3c(=O)c12)c1ccccc1` gave Ba CapD inh 0.54.

The listing continues:
Screening CCN(CC)CC(=O)N1c2ccccc2Sc2ccc(C(F)(F)F)cc21 returned Ba CapD inh 0.47.
For CCOC(=O)C1=C(C)NC2=C(C(=O)C(C(=O)OCC)C(c3ccc(OC)cc3)C2)C1c1ccc(O)c(OC)c1 (configuration not stated) the results were Ba CapD inh 1.4.
Screening CCCc1nnc(NC(=O)C(CC)Sc2nnc3c(n2)[nH]c2ccccc23)s1 (configuration not stated) returned AID504770 0.85 and Ba CapD inh 0.11.
`COC(=O)c1ccc(Cl)c(N)c1` gave AID504770 -0.5 and Ba CapD inh 21.
CCNC(=O)c1cccc(NC(=O)CCCc2nc3ccccc3c(=O)[nH]2)c1 was read as AID504770 1.4.

Screening results deposited in PubChem by ICCB-Longwood Screening Facility, Harvard Medical School.
